From PubChem
A647 fluor – compound autofluorescence in A647 spectral region | Compound fluorescence, A647 channel (570/671 nm), Tris buffer | max dye-equivalent concentration, M | 59,000 tested, under 10 active; active means above 1 µM dye equivalent; inconclusive means 0.1 to 1 µM; inactive means 0.1 µM or less;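 also: values scaled relative to a standard on each plate; highest value over a series up to 38 µM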
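Spectral profiling of library compounds in pH 8.0 Tris: 15 min room-temperature incubation, single ex/em pair (570/671 nm), response normalized to Alexa 647 equivalents.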
Resorufin autofl – resorufin region autofluorescence. Compound fluorescence, resorufin region 547/598 nm, buffer; stronger effect = higher value. max dye-equivalent concentration, M. actives 0.04% (n = 59,000). AID 588; active = above 10 nM dye equivalent; inconclusive = 1 to 10 nM; inactive = 1 nM or less; a few of its hits are not listed in these tables; also: highest value over a series up to 38 µM
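Dye-equivalent concentration values derive from comparing each well's 547/598 nm fluorescence against resorufin standards included on every plate. Incubation was 15 min at room temperature in 100 mM Tris, pH 8.0.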
AID923 – qHTS Assay for Allosteric/Competitive Inhibitors of Caspase-1: Spectroscopic Profiling in AFC Spectral Region. compound fluorescence, AFC spectral region (405/520 nm); almost no hit is shown here. actives 1.1% (n = 75,000). Potency, µM (titrated, usually from 57.5 µM), for inactives: at the top dose fluorescence increase, most hits filed as activators; active = well fitted activation curve with a large enough effect; inconclusive = small, poorly fitted or top-dose-only effect;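 also: potency is read from the fitted curve at half-maximal effect; 0% is about no effect; scaled to a free AFC standard on each plate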
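Baseline compound fluorescence (AFC region, 405 nm ex/520 nm em) taken from the intercept of kinetic reads with 50 nM caspase-1 and 5 uM Ac-WEHD-AFC; normalized to an on-plate AFC standard curve; compounds titrated up to 57 uM.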
TSHR agonist – TSH receptor (human) agonism | Potency, µM (top dose mostly 57.1 µM), inactives show at the top dose activation, most hits filed as activators | HEK293-CNG-TSHR cells (CNG channel as cAMP sensor), membrane potential dye, cAMP | actives 0.48% (n = 73,000) | P16473; active = well fitted activation curve of enough size with the parental cells flat; inconclusive = any curve in the parental cells; inactive = parental cells flat and receptor cells flat or falling; also: potency is read from the fitted curve at half-maximal effect; % of control where 0% means no effect; weak receptor curves with flat parental cells got no call and are not listed
Target sequence (P16473 whole entry, looked up): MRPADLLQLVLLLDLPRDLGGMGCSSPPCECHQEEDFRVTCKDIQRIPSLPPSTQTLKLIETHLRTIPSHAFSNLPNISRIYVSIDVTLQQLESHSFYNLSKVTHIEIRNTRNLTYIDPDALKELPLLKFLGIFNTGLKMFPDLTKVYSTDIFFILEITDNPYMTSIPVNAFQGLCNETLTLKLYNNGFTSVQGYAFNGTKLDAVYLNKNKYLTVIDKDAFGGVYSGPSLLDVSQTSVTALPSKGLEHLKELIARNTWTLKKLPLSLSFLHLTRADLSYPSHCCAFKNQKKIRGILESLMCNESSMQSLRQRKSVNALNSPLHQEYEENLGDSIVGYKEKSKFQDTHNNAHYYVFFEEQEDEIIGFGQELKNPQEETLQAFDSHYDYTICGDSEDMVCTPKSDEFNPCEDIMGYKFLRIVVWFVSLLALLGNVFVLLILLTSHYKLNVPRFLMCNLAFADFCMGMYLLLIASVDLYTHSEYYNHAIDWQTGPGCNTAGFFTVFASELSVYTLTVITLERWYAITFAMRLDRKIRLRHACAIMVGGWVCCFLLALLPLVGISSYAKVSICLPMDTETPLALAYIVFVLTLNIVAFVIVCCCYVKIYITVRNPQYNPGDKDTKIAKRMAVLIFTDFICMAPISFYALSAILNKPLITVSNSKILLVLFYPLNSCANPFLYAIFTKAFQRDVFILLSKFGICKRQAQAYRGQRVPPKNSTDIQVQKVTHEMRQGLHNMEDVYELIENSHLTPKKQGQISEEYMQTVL
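HEK 293 cells stably expressing TSHR and a cAMP-gated CNG channel; parental CNG-only cells as counterscreen. Cells preloaded 60 min with membrane potential dye plus 100 uM RO 20-1724, then compound 30 min; fluorescence read at 590 nm.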
A488 autofl – A488 region autofluorescence | compound autofluorescence, A488 spectral region, dye equivalency; stronger effect = higher value | max dye equivalency, M | AID 591 | actives 0.1% (n = 59,000); active = above 10 nM dye equivalent; inconclusive = 1 to 10 nM; inactive = 1 nM or less; about half of its hits are not listed in these tables;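 also: highest value over a series up to 38 µM; compound alone in buffer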
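Spectroscopic profiling in the A488 region: compounds in pH 8.0 Tris (100 mM), 15 min RT, CCD imaging with 480 nm excitation and 540 nm emission; responses normalized against A488 dye standards.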
* hit, by the source's call; i = inactive; ? = inconclusive; · = no result given; [ ] = remark or other dose.

Preview (3 entries):
SMILES,A647 fluor,Resorufin autofl,AID923,TSHR agonist,A488 autofl
CO[C@@H]1/C=C\CC(=O)N2CCC[C@@H]2C(=O)OC[C@@H](C)C(=O)OC[C@H]1C,·,·,-1.7%[11.5 µM],-13.7%[11.4 µM],·
CSc1nc2nc3c(c(=O)n2[nH]1)CN(Cc1ccccc1)CC3,1.07e-08,i,0.9%,2.3%,i
CCOc1ccc(OCC)c(NC(=O)CN(C)S(=O)(=O)c2cnc[nH]2)c1,2.51e-08,i,0.2%,-2.6%,i

All compounds of this part, from the first entry:
SMILES,A647 fluor,Resorufin autofl,AID923,TSHR agonist,A488 autofl
CO[C@@H]1/C=C\CC(=O)N2CCC[C@@H]2C(=O)OC[C@@H](C)C(=O)OC[C@H]1C,·,·,-1.7%[11.5 µM],-13.7%[11.4 µM],·
CSc1nc2nc3c(c(=O)n2[nH]1)CN(Cc1ccccc1)CC3,1.07e-08,i,0.9%,2.3%,i
CCOc1ccc(OCC)c(NC(=O)CN(C)S(=O)(=O)c2cnc[nH]2)c1,2.51e-08,i,0.2%,-2.6%,i
Cc1ccc2cc(CN(Cc3ccco3)S(=O)(=O)c3c(C)ccc4nsnc34)c(=O)[nH]c2c1,8.1e-09,i,0.8%,6.0%,i
COc1cccc(-n2c(SCC(=O)N3CCCC3)nc3c([nH]c4ccccc43)c2=O)c1,·,·,0.2%,-3.1%,·
CCOc1ccccc1NS(=O)(=O)c1c(C)noc1C,1e-09,i,0.4%,24.3%,i
CCCCn1c(=S)[nH]c2ncccc2c1=O,1e-09,i,-0.5%,5.8%,i
O=C(Cc1c(O)c2ccccc2[nH]c1=O)OC1CCCCC1,·,·,-0.8%,12.1%,·
CC(=O)Nc1nc(COc2ccccc2)cs1,1e-09,i,-1.2%,-3.7%,i
O=c1cc[nH]c2cccc(Cc3ccccc3)c12,1.21e-08,i,1.1%,12.0%,i
CC(C)CNC(=O)c1cc(-c2ccc(Br)cc2)on1,1e-09,i,-0.2%,-0.1%,i
COc1ccc(N)c(C)c1,·,·,3.8%,-21.2%,·
CCn1c(O)c(C=NCCN2CCOCC2)sc1=S,1e-09,i,-1.5%,1.1%,i
COc1cccc(C(=O)OCn2nnc3ccccc3c2=O)c1OC,·,·,2.4%,?,·
COCCN1C(=O)c2ccccc2C(C(=O)NCc2ccco2)C1c1c[nH]c2ccccc12 (configuration not stated),2.65e-08,i,2.3%,2.4%,i
CC(C)(C)c1cc(NC(=O)COC(=O)C2CC2)n(-c2ccccc2)n1,2.97e-08,i,0.4%,6.5%,i
CC(C)(C)OC(=O)N1CCNc2ccccc2C1,1.44e-08,i,0.1%,0.0%,i
CC(Oc1ccc(Br)cc1)C(=O)N1CCc2ccccc21 (configuration not stated),3.91e-08,i,-1.9%,?,i
O=C(CNCC1CCCO1)Nc1ccccc1N1CCOCC1 (configuration not stated),2.53e-08,i,-3.0%,3.1%,i
Cc1ccc(C(=O)Nc2c(C(=O)NCc3ccco3)cnn2-c2ccccc2)cc1,2.01e-08,i,-0.9%,22.8%,i
COc1ccccc1NC(=O)C1C2CCCCC21 (configuration not stated),1e-09,i,0.6%,?,i
CNC(=O)C1CC(=O)N(c2ccc(C)cc2)C1 (configuration not stated),·,·,3.6%,?,·
CC1(C)NC(=O)N(c2ccccc2Cl)C1(C)NO (configuration not stated),1e-09,i,-1.0%,6.0%,i
Cc1ccc2c(c1)NC(=O)C(CC(=O)NCCCN1CCN(c3cc(Cl)ccc3C)CC1)O2 (configuration not stated),·,·,-3.2%,17.4%,·
Cn1c(=O)cc(SCC(=O)NCCCN2CCOCC2)c2ccc(Cl)cc21,3.62e-08,i,1.9%,0.4%[11.4 µM],i
O=C(c1ccccc1)N(Cc1ccccc1)c1ccccn1,·,·,-0.9%,3.98µM*,·
O=C(CN1C(=O)NC2(CCCC2)C1=O)Nc1nc(-c2ccc(F)cc2)cs1,1.72e-08,i,-0.3%,2.7%[11.4 µM],i
CC(=O)c1cc(Cc2csc(C(C)=O)c2)cs1,·,·,3.9%,26.3%,·
CN(C)c1cccc2c(S(=O)(=O)N3CCOCC3)cccc12,4.46e-08,i,·,·,i
O=C(O)c1cc2n(n1)C(C(F)(F)F)CC(c1ccco1)N2 (configuration not stated),4.18e-08,i,4.5%,?,i

(further entries)
SMILES,A647 fluor,Resorufin autofl,AID923,TSHR agonist,A488 autofl
CCOc1cccc(NC(=O)C2CC(=O)N(C)C(=Nc3cccc(F)c3)S2)c1 (configuration not stated),1e-09,i,1.4%,?,i
O=C(NCc1cccnc1)c1c[nH]c2cc3c(cc2c1=O)OCCO3,1.5e-09,i,-1.0%,20.6%,i
CCC(c1nnnn1C1CCCC1)N1CCN(c2ccccc2F)CC1 (configuration not stated),7e-09,i,-0.9%,?,i
CCN(CC(=O)O)CC(=O)O,1.54e-08,i,0.4%[11.5 µM],0.8%[11.4 µM],i
COc1ccc(C)cc1S(=O)(=O)Nc1cccc(Cl)c1,3.4e-09,i,-1.6%,-2.6%,i
CCOc1nc(-c2ccccc2)ccc1-c1noc(COc2ccccc2)n1,6.2e-09,i,-1.5%,16.0%,i
O=c1/c(=C/c2ccccn2)sc2nc3ccccc3n12,·,·,5.9%,-0.3%[11.4 µM],·
COc1cc2c(N3CCOCC3)cc(O)c(CC(=O)Nc3ccccc3)c2cc1OC,2.5e-09,i,0.0%,31.6µM*,i
O=C(CCCCCN1C(=O)CCC1=O)Nc1ccc(Br)cc1F,1e-09,i,1.4%,-4.6%,i
COC(=O)Nc1ccc2c(c1)N(C(=O)CCN1CCOCC1)c1ccccc1S2,5.8e-09,i,-0.1%,3.3%,i
O=C(O)c1c(Cl)c(Cl)c(Cl)c(Cl)c1C(=O)N1CCOCC1,2.3e-09,i,3.2%,2.5%,i
COC(=O)CSc1nsc(SCC(=O)OC)n1,3e-09,i,0.4%,-2.0%,i
CC(=O)OCn1nnc2ccccc2c1=O,3.04e-08,i,-3.2%,-6.5%,i
Cn1c(N)c(C#N)c2c(c1=S)CSC(C)(C)C2,1.7e-09,i,·,·,i
CS(=O)(=O)N1CCC2(CCCN(C(c3ccccc3)c3ccccc3)C2)CC1,1.9e-08,i,-2.5%,?,i
CCCCN(CC)CCCNC(=O)CS(=O)(=O)Cc1nc(-c2cccc(OC)c2)oc1C,1e-09,i,0.1%,?,i
O=C(NCCO)c1nc(NCCO)c2ccccc2n1,2.22e-08,i,2.5%,3.1%,i
CC1Cc2ccccc2N1C(=O)C12CCC(C)(C(=O)C1)C2(C)C (configuration not stated),·,·,0.0%,21.6%,·
Nc1nc(NC(=O)Cc2ccccc2)nn1-c1ccccc1,3.88e-08,i,·,·,i
Cc1ccnc(SCC(=O)O)n1,2.35e-08,i,2.3%,1.3%,i
CCOCCCN(CCC#N)S(=O)(=O)c1ccc(S(=O)(=O)N2CCCC2)cc1,3.6e-09,i,0.8%,1.7%,i
CN(Cc1ccccc1)c1nc2c(c(=O)[nH]c(=O)n2C)n1CCOc1ccccc1,4.39e-08,i,-3.2%,19.6%,i
Cc1ccc(C(=O)Nc2ccc(Cl)cn2)cc1,2.38e-08,i,-1.3%,?,i
c1ccc2[nH]c(-c3ccnc4ccccc34)nc2c1,·,·,-4.0%,-0.9%,·
CCn1ncc(CN2CCN(C(=O)Nc3ccccc3C(=O)OC)CC2)c1C,1.2e-08,i,-0.5%,3.9%,i
Nc1ccccc1CCCC(=O)O,1.84e-08,i,1.3%[11.5 µM],1.1%[11.4 µM],i
CC1(C)CC(=O)C=C(NCCCN2CCCC2=O)C1,4.3e-09,i,4.6%,6.7%,i
OC1C[N+]2(CCCCC2)C1,3.09e-08,i,0.0%,-0.7%,i
COCc1cc(C)[nH]c(=O)c1C#N,·,·,-1.1%,-0.5%[11.4 µM],·
CC1CCc2nc(NC(=O)Cc3cccs3)sc2C1 (configuration not stated),1.81e-08,i,-0.9%,-16.6%,i

The list continues.
SMILES,A647 fluor,Resorufin autofl,AID923,TSHR agonist,A488 autofl
CCOC(=O)N1CCC(NC(=O)C(NS(=O)(=O)c2ccc3c(c2)CCN3C(C)=O)C(C)C)CC1 (configuration not stated),1.6e-09,i,1.7%,-2.2%,i
Cc1ccc(S(=O)(=O)NCCOc2nc(N(C)C)nc(N3CCOCC3)n2)cc1,1.4e-08,i,0.7%,4.0%,i
CCOC(=O)c1cc2c(=O)n3cccc(C)c3nc2n(C)c1=N,3.31e-08,i,·,·,i
N#Cc1nc(-c2ccco2)oc1NCCc1ccccc1,1e-09,i,1.6%,-1.6%,i
COc1ccc(N2C(=O)NC3CC2(C)Oc2ccccc23)cc1OC (configuration not stated),2.95e-08,i,1.2%,2.2%,i
CCOc1cc(CNc2ccc3[nH]c(=O)[nH]c3c2)ccc1OCC(=O)NC(C)(C)C,3e-09,i,11.7%,0.5%,i
COC(=O)CSc1nc(C)c(Oc2ccccc2)c(=O)[nH]1,7.21e-08,i,·,·,i
O=C(CSc1ccc2c(c1)OCCO2)Nc1ccc(Cl)cn1,1e-09,i,0.1%,?,i
Cc1ccc(SCCNS(=O)(=O)c2ccc3c(c2)OCCO3)cc1,1e-09,i,-1.2%,·,i
O=C(O)c1cc(Nc2nc(N3CCOCC3)nc(N3CCOCC3)n2)ccc1Cl,3.91e-08,i,-1.1%,-53.9%[inhibitor],i
CCCc1[nH]nc2c1C(c1ccc(OC(=O)N3CCOCC3)cc1)C(C#N)=C(N)O2 (configuration not stated),1e-09,i,2.1%,·,i
Cc1ccc(S(=O)(=O)N2CCCC2C(=O)OCc2ccco2)cc1 (configuration not stated),3.18e-08,i,0.4%,2.2%,i
Clc1nc(NCCc2ccccc2)c2ncn(-c3ccccc3)c2n1,1e-09,i,·,?,i
OCc1c[nH]c2ccccc12,·,·,-0.5%,-4.9%,·
COCC(C)NC(=O)c1cccc(Cl)c1 (configuration not stated),2.66e-08,i,0.3%,2.0%,i
Cc1cc(N(CC(=O)O)S(C)(=O)=O)ccc1Br,2.7e-09,i,0.8%,0.8%,i
O=C(c1cccc(F)c1)N1CCN=C1SCc1cccnc1,·,·,2.5%,-2.2%,·
O=C(Nc1ccccc1-c1ccccc1)NC1CCN(C(=O)N2CCOCC2)CC1,6.1e-09,i,1.5%,?,i
COc1ccc(C(C)=O)c2c(O)cccc12,1e-09,i,2.5%,3.9%,i
CCOc1ccc2ccccc2c1CNCCN1CCOCC1,3.47e-08,i,0.8%,?,i
Nc1nc2c(s1)CCc1c-2cnn1-c1ccccc1,3.6e-08,i,5.7%,0.8%[11.4 µM],i
CCOC(=O)CCc1c(C)c2ccc(OCc3nn[nH]n3)cc2oc1=O,1e-09,i,2.8%,?,i
Cc1cccc(OCC(=O)Nc2cc(C)ccc2O)c1,1e-09,i,-0.1%,-11.5%,i
Cn1c(SCC(=O)N2CCOCC2)nnc1-c1ccccc1,1e-09,i,-0.5%,-4.0%,i
O=C(Cc1ccc(S(=O)(=O)N2CCCC2)s1)N1CCOCC1,3.2e-09,i,-0.1%,2.4%,i
O=C(NCc1ccccn1)NC12CC3CC(CC(C3)C1)C2,1e-09,i,-1.8%,5.6%,i
Cn1c(=O)c2c(nc3sccn32)n(C)c1=O,5.2e-09,i,-1.0%,-2.7%,i
S=c1[nH]nc(Cc2ccccc2)n1Cc1ccco1,1e-09,i,3.8%,23.9%,i
COc1cccc(Nc2nnc(SCn3nnc4ccccc4c3=O)s2)c1,4.51e-08,i,-0.2%,-0.7%,i
Cc1nc(N2CCN(c3ccccc3)CC2)nc2c1C(=O)CCC2,2.9e-09,i,0.4%,·,i

An excerpt, so the mix of outcomes need not match the whole.
